Screening data: PubChem BioAssay, several laboratories
PABP FP inh: blocks human PABP binding to poly(A) RNA | P11940 | inhibition, % at 35 µM | AID 2014 | fluorescence polarization | hit rate 1% among 290,000;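 active = 50% or more with normal probe brightness, or confirmed in later tests; inconclusive = above 50% with abnormal brightness, or retests that disagree; inactive = below 50% or failed in later tests; about a fifth of its hits are not listed in these tables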;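 also: calls also rest on retests at 20 µM and on dose response follow-up; controls were probe without protein and protein plus probe with vehicle; some compounds called inactive have numbers as strong as hits; many hits fall short of the cut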
Target sequence (P11940 whole entry, looked up): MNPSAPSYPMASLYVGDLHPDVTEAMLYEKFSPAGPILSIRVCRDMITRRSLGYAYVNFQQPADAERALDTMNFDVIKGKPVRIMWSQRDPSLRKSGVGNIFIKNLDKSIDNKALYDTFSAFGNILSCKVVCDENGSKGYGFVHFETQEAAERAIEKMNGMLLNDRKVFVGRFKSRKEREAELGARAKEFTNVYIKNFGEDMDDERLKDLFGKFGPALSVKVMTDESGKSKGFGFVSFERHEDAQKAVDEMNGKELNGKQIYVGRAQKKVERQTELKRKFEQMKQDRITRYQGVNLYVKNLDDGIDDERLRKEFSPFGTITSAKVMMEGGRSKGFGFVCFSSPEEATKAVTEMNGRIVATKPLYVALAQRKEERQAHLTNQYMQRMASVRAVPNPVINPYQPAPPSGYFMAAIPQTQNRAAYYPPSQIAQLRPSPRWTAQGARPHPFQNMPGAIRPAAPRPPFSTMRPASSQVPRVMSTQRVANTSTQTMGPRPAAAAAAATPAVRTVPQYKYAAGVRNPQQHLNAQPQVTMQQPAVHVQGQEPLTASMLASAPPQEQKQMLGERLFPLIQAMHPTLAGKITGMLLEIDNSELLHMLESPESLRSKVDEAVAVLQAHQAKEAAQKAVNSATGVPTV
HIV Env fusion: HIV envelope-mediated fusion inhibition. HeLa-JRFL Env/CEM21 cell fusion, luciferase. hit rate 1.1% among 360,000. inhibition, % at 12.3 µM;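 active = mean replicate inhibition score of at least 50 and every replicate individually at or above 50; inconclusive = only one of the two criteria met; inactive = mean below 50 and not all replicates reaching 50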;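 also: 0% = plate neutral controls and 100% = maraviroc near 300 nM; one replicate is shown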
MT1-MMP act inh: blocks activation of human MT1-MMP | P50281 | HT1080 RFP-PRO-GFP cells, GFP/RFP ratio fluorescence, overnight; percent of plate control window, DMSO zero | GFP/RFP ratio change, % at 20 µM | hit rate 0.061% among 360,000;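 active = GFP/RFP ratio change of at least 30% with cell ATP level not reduced by more than half and red fluorescence within 50% of control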; also: strong numbers were not always called active
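system = RFP-PRO-GFP reporter HT1080 cells | dosing = 20 µM single dose, 1% DMSO | timing = overnight cell settling, then overnight compound exposure, 37 °C, 5% CO2 | read-out basis = GFP/RFP fluorescence ratio | controls = DMSO and RFP-L50D-GFP cell wells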
CSC inhib: blocks cancer stem cells | inhibition, % at 7.5 µM | AID 2717 | hit rate 1.1% among 300,000 | cancer stem cell-like cells viability, luminescence;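 active = mean at 75% or more and at least half the replicates too; inconclusive = mean and replicates disagree; tested in HMLE shEcad cells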;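 also: 0% = median of negative and 100% = median of positive control wells; the first replicate is given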
eIF4H FP inh: inhibitors of RNA binding by human eIF4H; Q15056; eIF4H fluorescence polarization binding assay; inhibition, % at 35 µM; hit rate 0.94% among 290,000;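 active = 50% or more with normal probe brightness, or confirmed in later tests; inconclusive = above 50% with abnormal brightness, or retests that disagree; inactive = below 50% or failed in later tests; about a fifth of its hits are not listed in these tables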;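 also: calls also rest on retests at 20 µM and on dose response follow-up; 0% = protein and probe with vehicle and 100% = probe without protein; strong numbers were not always called active; many hits fall short of the cut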
UUG fidelity: modulators of start codon recognition fidelity in yeast; S. cerevisiae UUG-firefly luciferase reporter, luminescence/redox ratio; activity score, % at 18.7 µM; hit rate 0.13% among 350,000; AID 602363;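 active = replicate mean at a twofold rise or more, about +100% in these data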;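 also: firefly luciferase made from a UUG start codon reports start codon fidelity; reporter light over untreated wells divided by growth signal over untreated wells; some hits fall short of that in this replicate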
Rce1 inh: blocks yeast Ras-converting enzyme | Q03530 | yeast membranes, quenched prenylated peptide cleavage fluorescence | calls only | hit rate 0.27% among 290,000;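 active = fall in fluorescence gain of 50% or more versus controls, with final raw signal at or below 3038400; inconclusive = same 50% fall but final raw signal above 3038400; inactive = fall in fluorescence gain under 50%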;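 also: plate controls were neutral control wells for no effect and wells lacking membranes for full effect; tested at 10 µM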
eIF4H FP inh retest: second read-out of eIF4H FP inh, no call of its own (marks repeat the call); inhibition, %; compound at 20 µM; confirmation average;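 mean of two retest wells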
PABP FP inh retest: also measured in PABP FP inh; calls as there; inhibition, %; compound at 20 µM; confirmation repeats;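 mean of two retest wells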
MT1-MMP act inh RFP: also measured in MT1-MMP act inh; calls as there; RFP signal change, %; measured here: RFP expression control read;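 0 = vehicle wells; hits needed this value within 50% of zero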
An asterisk follows results filed as active; i = inactive; ? = inconclusive; / = no result given; & = joins results of further samples. Only part of the results is shown. The share of hits here may be higher or lower than overall.

SMILES | PABP FP inh | HIV Env fusion | MT1-MMP act inh | MT1-MMP act inh RFP | CSC inhib | eIF4H FP inh | UUG fidelity | Rce1 inh | others
NC(=O)c1c(NC(=O)c2ccco2)sc2c1CCC2 | 8 | / | -6 | 0 | -3 | 6 | -16 | i
CCN(CC)C(=O)CN(Cc1ccccc1)S(=O)(=O)c1ccc(F)cc1 | 4 | / | 0 | 3 | -2 | -4 | 7 | i
Cc1ccc(/C=C(/NC(=O)c2ccccc2)C(=O)NC(Cc2c[nH]c3ccccc23)C(=O)O)cc1 (configuration not stated) | 0 | -2 | -4 | 0 | 4 | -8 | -10 | i
CCOC(=O)CCCNC(=O)c1cncc(Br)c1 | -6 | -36 | 4 | 7 | 13 | -9 | -24 | i
COC(=O)N/N=C/c1ccc(-c2ccccc2Cl)o1 | -16 | 25 | 3 | 5 | 3 | -1 | -14 | i
Cc1nn(Cc2c(Cl)cccc2Cl)c(C)c1NC(=O)c1cn(-c2ccccc2)nc1-c1ccccc1 | -9 | / | -25 | -24 | 165* | -6 | -5 | i
O=C1OC(Nc2nccs2)c2ccccc21 (configuration not stated) | 1 | / | -3 | -1 | 12 | 1 | -13 | i
C[C@H](NC(=O)c1ncn2c1C(=O)NC[C@H]2C)c1ccccc1 | / | -25 | 2 | 2 | / | / | -11 | /
COc1ccc(CCNC(=O)c2ccc([N+](=O)[O-])cc2)cc1 | -2 | 14 | 1 | -8 | -15 | -14 | / | i
CC(CCc1ccccc1)NC(=O)COC(=O)c1cc(NS(=O)(=O)c2ccc(Cl)c([N+](=O)[O-])c2)ccc1O (configuration not stated) | 6 | / | 0 | 0 | / | -5 | / | i
CCCNC(=O)COC(=O)c1ccc(-c2ccccc2)cc1 | 0 | -9 | 3 | 6 | -3 | -6 | / | i
Cc1ccc(-n2nnnc2CNC(=O)c2ccc([N+](=O)[O-])o2)cc1C | / | 15 | -5 | -8 | 9 | / | / | i
Cc1ccc(-c2ccc(CN3C(CC(C)C)C(=O)N(Cc4cn(CCC5OCCO5)nn4)CCS3(=O)=O)cc2)cc1 (configuration not stated) | / | 5 | -6 | -12 | / | / | -6 | /
CCOC(=O)CSC1=Nc2ccccc2C2=NC(CC(=O)NCc3cccs3)C(=O)N12 (configuration not stated) | 6 | -84 | -4 | -3 | 8 | 3 | -17 | i
CC(N)C(=O)NC(C(=O)N1CCCC1C(=O)NC(c1ccccc1)c1ccccc1)C(C)C (configuration not stated) | / | -8 | 5 | 7 | 1 | / | -10 | /
CC(C)(C)N(Cc1ccccc1)C(=O)COC(=O)CCc1c[nH]c2ccccc12 | -2 | -12 | 3 | 1 | 5 | -7 | -3 | i
CCOC(=O)C1=C(C(F)(F)F)Nc2ncnn2C1c1ccc(OC)cc1OC (configuration not stated) | -8 | -2 | -1 | 5 | -10 | -9 | -24 | i
CCOc1ccccc1NC(=O)COC(=O)C1CCC1 | 8 | -40 | 2 | 3 | 14 | -7 | -31 | i
CCN(CC)C(=S)Nc1cc(C(=O)OC)ccc1C(=O)OC | -14 | / | 0 | 0 | -6 | -2 | -26 | i
Cn1ccnc1C(OC(=O)c1ccc(Cl)cc1)C(F)(F)F (configuration not stated) | 0 | 1 | -2 | -1 | -9 | -1 | -4 | i
O=C(Nc1ncccc1O)c1ccc2c(c1)OCCO2 | / | 3 | 8 | 5 | 1 | / | / | i
COc1ccc(NC(=S)N(Cc2ccc(C)cc2)Cc2ccccn2)cc1 | 3 | 4 | -1 | -3 | -21 | -4 | / | i
COc1ccc(C2Nc3ccccc3C(=O)N2NS(C)(=O)=O)cc1OC (configuration not stated) | -6 | 15 | 8 | 0 | -5 | -11 | -6 | i
Cc1ccc(N(Cc2cc3ccc(C)cc3[nH]c2=O)S(=O)(=O)c2ccccc2)c(C)c1 | -6 | 10 | 0 | -1 | -4 | 2 | 0 | i
Cc1cc2ccccn2c1C(=O)c1cccc(S(=O)(=O)N2CCOCC2)c1 | 4 | -21 | 6 | 0 | -21 | -4 | -14 | i
Next structures.
SMILES | PABP FP inh | HIV Env fusion | MT1-MMP act inh | MT1-MMP act inh RFP | CSC inhib | eIF4H FP inh | UUG fidelity | Rce1 inh | others
O=C(COC(=O)Cc1ccccc1F)Nc1ccc(Cl)cn1 | -2 | -8 | 9 | 8 | -26 | 6 | -4 | i
Cc1noc(C)c1C(=O)Nc1cc(S(=O)(=O)N2CCCCC2)ccc1N(C)C | / | -10 | 1 | 2 | / | / | -4 | /
CCOc1cccc2cc(C(=O)NCc3cccnc3)c(=O)oc12 | 8 | 26 | 5 | 1 | / | 3 | -9 | i
Cc1ccc(NC(=O)C2CCCN(C(=O)Nc3ccc(F)cc3)C2)cc1 (configuration not stated) | 9 | -5 | 4 | 4 | -5 | -4 | -17 | i
COc1ccc(Cl)cc1NC(=O)CSC1=NN2CCCC(=O)N=C2S1 | 2 | 22 | -3 | -18 | / | 4 | -4 | i
Cc1ccc(C2CC(c3ccc(Cl)cc3)n3nc(N)nc3N2)cc1 (configuration not stated) | 11 | 15 | 10 | 2 | 16 | ? | -7 | i
CC1CN(c2ccc(Oc3ccccc3)cc2)c2nc3c(c(=O)n(CC(N)=O)c(=O)n3C)n2C1 (configuration not stated) | -3 | -39 | 5 | 1 | -6 | -1 | 2 | i
CCn1ccnc1CNCc1cn(-c2cc(C)ccc2C)nc1-c1ccccc1 | -4 | -5 | -1 | 2 | -8 | 0 | / | i
O=[N+]([O-])c1ccc(C2=Nn3c(Cn4nnc5ccccc54)nnc3SC2)cc1 | 10 | -2 | 4 | 4 | -6 | -9 | -8 | i
Cc1cc(C)cc(N2C(=O)CSC2c2ccccn2)c1 (configuration not stated) | -4 | -7 | 1 | 5 | -3 | -9 | / | i
CC(C)(C)NC(=O)Cn1c(=O)oc2ccc(Cl)cc21 | -3 | -17 | 5 | 7 | -8 | -6 | -22 | i
CCCCOc1ccc(-c2ncc(C(=O)O)c(C)n2)cc1 | 20 | / | 8 | -2 | -13 | -7 | -33 | i
CCC1Sc2ccccc2N(CC(=O)NC2CCCCC2)C1=O (configuration not stated) | 0 | -25 | 2 | 2 | -6 | -1 | / | i
O=[N+]([O-])c1ccc(N=Cc2sc3ccccc3c2O)cc1 | 10 | -9 | 0 | 3 | 8 | 41 | -5 | i
COCC(C)n1c(SCC(=O)N2CCOCC2)nc2ccccc2c1=O (configuration not stated) | / | / | 4 | -1 | -11 | / | -11 | /
COc1ccc(-n2c(=O)c(CCC(=O)N(C)Cc3cccs3)nc3ccccc32)cc1 | / | 24 | 2 | -6 | -10 | / | -4 | i
COc1ccc(C=Nc2cccnc2N)cc1 | ? | / | -19 | 0 | / | ? | -29 | i
O=C(COC(=O)CNC(=O)C1CCCCC1)Nc1cccc(F)c1 | / | -3 | 3 | 0 | / | / | 9 | /
O=C(Nc1ccsc1C(=O)NC1CCCCC1)c1ccccc1 | -11 | -86 | 5 | -4 | / | -4 | 2 | i
CCCN1C(=O)/C(=C/c2ccccc2OCc2ccc(C(=O)O)cc2)NC1=S | 51 | 10 | 7 | 5 | -13 | 12 | / | i | eIF4H FP inh retest=2;PABP FP inh retest=-1
O=C1N=C(N2CCCCC2)S/C1=C\c1cn[nH]c1-c1ccccc1 | 4 | -2 | 2 | 8 | 20 | -3 | / | i
Cc1ccc(C(=O)CC(=O)COc2ccc(Cl)cc2)cc1 | -6 | 2 | 1 | 9 | 5 | -5 | / | i
COc1cc(CC(=O)OCC(=O)Nc2ccc(Cl)c(S(=O)(=O)N(C)C)c2)cc(OC)c1OC | 0 | -2 | -2 | -3 | -9 | -4 | -13 | i
CCN1CCN(c2ncnc3c2cnn3-c2ccc(Cl)cc2)CC1 | 5 | -16 | -1 | -3 | 28 | 1 | -18 | i
C/C(=N\Nc1cc(Cl)nc(C)n1)c1ccc(C)cc1 | / | -45 | -8 | -5 | 5 | / | -8 | i
Next section:
SMILES | PABP FP inh | HIV Env fusion | MT1-MMP act inh | MT1-MMP act inh RFP | CSC inhib | eIF4H FP inh | UUG fidelity | Rce1 inh | others
COc1ccccc1NC(=O)CCN1CCN(Cc2ccccc2)CC1 | 0 | / | -3 | 7 | -1 | -3 | / | i
Cc1ccc(NC(=O)COc2ccc(Br)cn2)cc1 | 1 | -8 | 1 | 0 | -3 | -10 | 4 | i
NC(=O)C1=C(N=C2CCCCC2)CCCC1 | / | -23 | 1 | 9 | / | / | -16 | /
O=C(CCN1C(=O)CSc2ccccc21)Nc1ccc(C(F)(F)F)cc1 | / | 16 | 2 | -1 | 10 | / | -3 | /
CCOc1ccc(N2C(=O)c3ccccc3C2=O)cc1 | -12 | -33 | -18 | -1 | -10 | -2 | -13 | i
COc1ccc(N(C(=O)c2cccnc2)S(=O)(=O)c2ccc(F)cc2)cc1 | 0 | 21 | -1 | 3 | / | -12 | -21 | i
COc1ccc(S(=O)(=O)N(CC(=O)N2CCCCCC2)c2ccccc2OC)cc1 | -2 | 6 | -2 | -2 | / | 0 | -4 | i
CC(=O)c1sc(NS(=O)(=O)c2ccc(C)cc2)nc1C | -2 | 3 | 2 | -3 | 6 | -5 | / | i
Cc1ccn2cc(CCNS(=O)(=O)c3ccc(F)c(C(F)(F)F)c3)nc2c1 | 4 | / | -1 | 4 | 2 | 3 | -3 | i
CCOc1cc(C(=O)CCC(=O)OCC(=O)Nc2ccc(F)cc2)ccc1O | / | 5 | 3 | -1 | / | / | -19 | /
CCc1ncc(CN2CCC(C(=O)Nc3cccc(-c4cscn4)c3)CC2)cn1 | -7 | 21 | -2 | -13 | -15 | -3 | -5 | i
CC1(C(=O)NS(=O)(=O)C2CC2)CCCN(C(=O)c2ccc(C(F)(F)F)cc2)C1 (configuration not stated) | / | -34 | 3 | 9 | / | / | 4 | /
C[C@H]1CN([C@@H](C)CO)C(=O)CCCn2nncc2CO[C@@H]1CN(C)Cc1ccc2c(c1)OCCO2 | / | -32 | 1 | 3 | / | / | -7&-7 | /
O=C(Nc1nc(-c2ccccc2)cs1)c1ccccc1F | -4 | -40 | -1 | -3 | 7 | -1 | 17 | i
O=C(NC(=S)NCCCN1CCOCC1)c1ccco1 | 1 | 10 | -4 | 1 | -9 | 11 | -22 | i
Cn1c(SCC(=O)OCC(=O)c2ccccc2)nnc1-c1cccs1 | 7 | -57 | -2 | 0 | -15 | -3 | -7 | i
COc1c(C)cc(C(O)c2ncc(-c3ccc(Cl)cc3)[nH]2)cc1C (configuration not stated) | / | 15 | -2 | -12 | / | / | -12 | /
COc1ccc(/C=C(\C#N)C(=O)NCc2ccccc2)cc1 | -7 | 1 | 0 | 1 | 0 | 5 | -2 | i
c1ccc(OCCn2c(-c3ccco3)nc3ccccc32)cc1 | -2 | / | -14 | -4 | -6 | 15 | -24 | i
CCOC(=O)C(O)(CCC(O)(C(=O)OCC)C(=O)OCC)C(=O)OCC | 7 | 10 | -1 | -1 | -11 | -9 | -15 | i
O=C(CC1CC2CCC1C2)N1CCN(S(=O)(=O)c2ccccc2[N+](=O)[O-])CC1 (configuration not stated) | / | / | -3 | -2 | -9 | / | -2 | /
Cc1ccc(SC[C@H](C)CN2CC[C@H](NC(=O)OCc3ccccc3)CCC2=O)cc1 | -3 | 14 | 3 | -2 | -3 | -5 | -9 | i
